Rce1 inh – inhibitors of yeast Ras-converting enzyme; actives 0.27% (n = 290,000); calls only; yeast membranes, quenched prenylated peptide cleavage fluorescence; Q03530;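 active = fall in fluorescence gain of 50% or more versus controls, with final raw signal at or below 3038400; inconclusive = same 50% fall but final raw signal above 3038400; inactive = fall in fluorescence gain under 50%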;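 also: plate controls were neutral control wells for no effect and wells lacking membranes for full effect; tested at 10 µM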
Target sequence (Q03530 whole entry, looked up): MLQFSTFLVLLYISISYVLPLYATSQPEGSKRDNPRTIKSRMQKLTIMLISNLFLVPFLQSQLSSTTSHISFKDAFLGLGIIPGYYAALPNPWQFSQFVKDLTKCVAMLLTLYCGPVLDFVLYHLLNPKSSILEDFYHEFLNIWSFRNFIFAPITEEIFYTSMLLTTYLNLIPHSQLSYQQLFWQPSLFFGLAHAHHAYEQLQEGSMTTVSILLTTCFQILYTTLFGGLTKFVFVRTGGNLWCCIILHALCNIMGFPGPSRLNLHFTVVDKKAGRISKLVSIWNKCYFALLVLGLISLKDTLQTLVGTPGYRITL
eIF4H inh – inhibitors of RNA binding by human eIF4H. AID 2012. inhibition, % at 35 µM. eIF4H fluorescence polarization binding assay. actives 0.94% (n = 290,000);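 active = 50% or more with normal probe brightness, or confirmed in later tests; inconclusive = above 50% with abnormal brightness, or retests that disagree; inactive = below 50% or failed in later tests; about a fifth of its hits are not listed in these tables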;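 also: calls also rest on retests at 20 µM and on dose response follow-up; 0% = protein and probe with vehicle and 100% = probe without protein; strong numbers were not always called active; many hits fall short of the cut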
Yeast UUG start – alters start codon recognition fidelity in yeast. S. cerevisiae UUG-firefly luciferase reporter, luminescence/redox ratio. actives 0.13% (n = 350,000). activity score, % at 18.7 µM;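 active = replicate mean at a twofold rise or more, about +100% in these data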;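 also: firefly luciferase made from a UUG start codon reports start codon fidelity; reporter light over untreated wells divided by growth signal over untreated wells; some hits fall short of that in this replicate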
Env fusion inh – blocks HIV Env-driven cell-cell fusion | inhibition, % at 12.3 µM | HeLa-JRFL Env/CEM21 cell fusion, luciferase | AID 651610 | actives 1.1% (n = 360,000);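 active = mean replicate inhibition score of at least 50 and every replicate individually at or above 50; inconclusive = only one of the two criteria met; inactive = mean below 50 and not all replicates reaching 50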;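 also: 0% = plate neutral controls and 100% = maraviroc near 300 nM; one replicate is shown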
MT1-MMP act inh – inhibitors of human MT1-MMP activation; P50281; HT1080 RFP-PRO-GFP cells, GFP/RFP ratio fluorescence, overnight; percent of plate control window, DMSO zero; GFP/RFP ratio change, % at 20 µM; actives 0.061% (n = 360,000); AID 651647;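 active = GFP/RFP ratio change of at least 30% with cell ATP level not reduced by more than half and red fluorescence within 50% of control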; also: strong numbers were not always called active
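Test system: HT1080 RFP-PRO-GFP cells; Benchmarks: DMSO and RFP-L50D-GFP cell wells; Timing: cells overnight before dosing, compound overnight, 37 °C, 5% CO2; Compound: one 20 µM compound dose with 1% DMSO; Read-out: GFP/RFP fluorescence ratio.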
CSC inhib – cancer stem cell inhibition. actives 1.1% (n = 300,000). inhibition, % at 7.5 µM. AID 2717. cancer stem cell-like cells viability, luminescence;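 active = mean at 75% or more and at least half the replicates too; inconclusive = mean and replicates disagree; tested in HMLE shEcad cells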;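 also: 0% = median of negative and 100% = median of positive control wells; the first replicate is given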
PABP polyA inh – PABP-poly(A) binding inhibition; P11940; PABP-poly(A) RNA binding, fluorescence polarization; inhibition, % at 35 µM; actives 1% (n = 290,000); AID 2014;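 active = 50% or more with normal probe brightness, or confirmed in later tests; inconclusive = above 50% with abnormal brightness, or retests that disagree; inactive = below 50% or failed in later tests; about a fifth of its hits are not listed in these tables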;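 also: calls also rest on retests at 20 µM and on dose response follow-up; controls were probe without protein and protein plus probe with vehicle; some compounds called inactive have numbers as strong as hits; many hits fall short of the cut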
Target sequence (P11940 whole entry, looked up): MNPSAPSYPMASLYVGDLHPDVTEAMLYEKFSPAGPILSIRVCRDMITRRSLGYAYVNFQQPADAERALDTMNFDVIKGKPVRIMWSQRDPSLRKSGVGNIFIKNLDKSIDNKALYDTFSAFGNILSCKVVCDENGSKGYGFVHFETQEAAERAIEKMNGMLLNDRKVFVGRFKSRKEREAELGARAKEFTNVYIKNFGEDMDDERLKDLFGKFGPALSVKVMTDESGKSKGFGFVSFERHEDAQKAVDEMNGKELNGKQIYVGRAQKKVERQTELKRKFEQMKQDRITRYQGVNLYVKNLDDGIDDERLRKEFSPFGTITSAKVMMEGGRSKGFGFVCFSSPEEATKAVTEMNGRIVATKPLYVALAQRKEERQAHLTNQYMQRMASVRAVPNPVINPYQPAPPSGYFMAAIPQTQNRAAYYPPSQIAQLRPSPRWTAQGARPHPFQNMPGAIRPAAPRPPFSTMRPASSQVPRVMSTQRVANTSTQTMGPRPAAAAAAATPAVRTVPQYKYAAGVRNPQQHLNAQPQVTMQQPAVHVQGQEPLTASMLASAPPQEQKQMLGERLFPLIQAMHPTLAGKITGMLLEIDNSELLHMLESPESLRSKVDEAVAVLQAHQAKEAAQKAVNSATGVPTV
eIF4H inh retest – further read-out of eIF4H inh, marked with its call; inhibition, %; compound at 20 µM; confirmation average;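 mean of two retest wells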
PABP polyA inh retest – further read-out of PABP polyA inh, marked with its call; inhibition, %; compound at 20 µM; confirmation repeats;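 mean of two retest wells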
MT1-MMP act inh RFP – recorded beside MT1-MMP act inh, whose call it bears; RFP signal change, %; measured here: RFP expression control read;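 0 = vehicle wells; hits needed this value within 50% of zero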
* hit, by the source's call; i = inactive; ? = inconclusive; . = not tested or not shown; & = joins results of further samples; [ ] = dose if it differs, or a comment. An excerpt; the hit share may differ from the screen's.

SMILES	Rce1 inh	eIF4H inh	Yeast UUG start	Env fusion inh	MT1-MMP act inh	MT1-MMP act inh RFP	CSC inhib	PABP polyA inh	others
COc1ccc(NC(=O)N(C)C[C@H]2Oc3ccc(NC(=O)c4ccncc4)cc3C(=O)N([C@H](C)CO)C[C@@H]2C)cc1	.	.	-3.6&-10.0	-20.0[16.7 µM]	4.3	0.4	.	.
COc1ccc2c(CC(=O)Nc3cccc(S(=O)(=O)N4CCOCC4)c3)coc2c1	i	6.2	-1.0	22.6	-4.4	-6.7	-1.9	-6.2
CCN(C[C@H]1N[C@@](Cc2ccccc2)(C(=O)OC)[C@H]2C(=O)N(Cc3ccccc3)C(=O)[C@@H]12)S(=O)(=O)c1ccc(F)cc1	.	.	-5.0	34.3	1.3	-0.6	6.4	.
Cc1cc(C(=O)Nc2ccc3c(c2)OCCO3)c2ccccc2n1	i	2.4	.	14.1	-1.2	-0.6	-3.7	-4.7
COc1cc(NC(=O)c2onc(C)c2Cl)c(OC)cc1Cl	i	10.7	-18.2	-7.9	-1.8	1.8	1.0	7.6
Cc1cccc(Oc2cc([N+](=O)[O-])cc3c2C(=O)Nc2ccccc2O3)c1	i	56.8	.	27.3	-56.1	-21.5	-6.8	4.9	eIF4H inh retest=-1.0;PABP polyA inh retest=6.2
COCCn1c(C)cc(C(=O)CSc2nc3ccccc3c(=O)n2C(C)COC)c1C (centres undefined)	i	0.2	.	7.7	-1.1	1.6	-9.9	7.4
Cc1ccc(NC(=O)c2ccc(OC(=S)N3CCOCC3)cc2)cc1	i	-7.5	35.9	-31.6	3.0	-0.4	13.0	-10.7
Cc1cc(C)cc(C(=O)NCC(=O)OCC(=O)NC2CC2)c1	.	.	-1.7	.	-0.1	0.9	-15.4	.
COc1ccc(N2CCN(c3nc4c(C)cccn4c(=O)c3/C=C(\C#N)C(N)=O)CC2)cc1	i	8.4	45.6	18.5	-7.6	-3.8	-16.9	16.2
CCOc1ccc(C(=O)Nc2ccc(S(=O)(=O)NCC3CCCO3)cc2)cc1OCC (centres undefined)	i	0.9	-3.0	2.2	6.9	-3.6	-1.4	2.3
c1ccc(-c2csc(Nc3ncccn3)n2)cc1	i	0.9	.	.	2.6	3.2	.	17.6
CCc1nnc(NC(=O)Nc2ccccc2OC)s1	i	-0.6	-14.3	-161.1	1.7	-5.4	-9.7	-6.5
CCC1CCCCN1CCNC(=O)C1CCN(S(=O)(=O)c2cccc3nsnc23)CC1 (centres undefined)	i	-8.2	-11.7	-9.1	3.2	6.7	-6.5	-0.7
COC(=O)C1CCN(CC(=O)Nc2cc(Cl)ccc2OC)CC1	i	1.0	.	.	.	.	.	32.1
Cc1ccc(C)c(N2CCN(C(=O)CCc3nc(-c4ccc(Br)cc4)no3)CC2)c1	.	.	-27.1	-1.5	2.8	2.3	.	.
N/C(=N\OC(=O)CSc1ccccc1)c1ccncc1	i	-13.7	-20.5	-34.1	1.2	-1.9	-2.6	-7.1
COC(=O)CNC(c1ccccc1)c1cc(Cl)ccc1NC(=O)c1cccc(Cl)c1 (centres undefined)	i	-7.5	-7.8	2.0	-39.6	-30.6	40.0	-4.4
COc1ccc(-c2nnc(SCC(=O)N3CCCC3)o2)cc1	i	5.8	.	-17.3	0.4	4.1	-11.8	6.7
COc1cccc(/C=C2\C(=O)C(=O)c3ccccc32)c1	i	-2.5	-9.7	-51.9	-127.3	7.9	13.2	9.6
Cc1nnc(SCc2ccccc2)nc1/C=C/NOCc1ccc(Cl)cc1Cl	i	-2.0	.	.	0.1	9.5	2.9	1.5
Cc1nc(C(=O)NNC(=O)Nc2ccc(Cl)cc2)cs1	i	-1.4	.	14.9	3.7	7.3	1.3	-3.8
NC(=O)c1ccc(N2CCN(c3ccccc3O)CC2)c([N+](=O)[O-])c1	i	-32.2	-19.6	-3.9	-2.7	-3.1	5.1	0.4
CCCCCCn1c(=O)n2n(c1=O)[C@@H]1CN(S(=O)(=O)c3ccc(C)cc3)C[C@]1(O)[C@@H](OC(=O)Nc1c(C)noc1C)C2	.	.	8.4	-14.2	7.3	-2.2	.	.
CN(C)S(=O)(=O)c1ccc(C(=O)NCCOc2ccc(F)cc2)cc1	i	-1.9	-19.9	.	2.5	0.5	-6.1	4.9

(listing goes on)
SMILES	Rce1 inh	eIF4H inh	Yeast UUG start	Env fusion inh	MT1-MMP act inh	MT1-MMP act inh RFP	CSC inhib	PABP polyA inh	others
N#Cc1ccc(CSc2nnc3[nH]c(=O)cc(N)n23)cc1	i	12.6	.	3.3	1.9	4.5	-2.4	-4.4
Cc1nnc(NC(=O)CSc2nc(C(C)C)nc3sc(C)c(C)c23)s1	.	1.9	-14.3	-19.4	-0.1	5.7	.	6.0
CNC[C@@H](Cc1ccccc1)NC[C@@H](CC1CCCCC1)NCCCc1ccccc1	i	-10.3	-14.2	103.5*	-28.0	-17.3	110.6*	-9.8
O=C(NCCN1CCCCC1)c1ccc2c(c1)OCCO2	i	-1.6	.	.	-2.1	-4.5	-14.2	-2.6
CC(Sc1nnc(Cc2ccc3c(c2)OCO3)o1)C(N)=O (centres undefined)	i	2.5	-12.8	3.2	-3.1	-0.5	1.3	-0.5
CCCS(=O)(=O)c1nc(S(=O)(=O)c2ccc(C)cc2)c(N2CC(C)OC(C)C2)s1 (centres undefined)	i	3.6	-10.8	-0.8	-1.5	3.3	6.9	9.6
CCc1ccc(NC(=O)C(C)Oc2nnc(-c3cccs3)c(-c3cccs3)n2)cc1 (centres undefined)	i	-0.3	-21.2	.	1.7	-1.4	-8.5	-2.3
COc1ccccc1OCC(=O)Nc1nnc(C2CCCC2)s1	i	2.8	-1.5	-18.5	1.4	2.7	-5.4	-8.3
CCOC(=O)CSc1nnc(Cn2nnc(-c3ccccc3)n2)n1CC	.	11.2	-14.8	.	3.1	4.7	-0.9	5.3
Cn1nc(C(=O)N2CCOCC2)c2ccccc2c1=O	i	-4.9	-6.2	-19.1	3.6	6.8	-3.3	-2.9
Cc1cccc(N2CCN(C(C)C(=O)N3CCc4ccccc43)CC2)c1C (centres undefined)	.	-14.7	-16.3	-5.7	3.7	1.4	-9.0	-1.2
COc1nccnc1NS(=O)(=O)c1ccc(NC(=S)NC(=O)/C=C/c2ccccc2)cc1	i	1.0	.	-9.9	-1.9	1.2	6.1	8.2
C/C(=N/OC(=O)c1cccc(C(F)(F)F)c1)c1cnccn1	i	4.8	8.8	-2.6	1.2	0.6	-3.1	-16.3
Cc1nc2ncnn2c(N2CCC(C(=O)NC3CCCC3)CC2)c1Cc1ccccc1	i	7.0	-22.9	.	-0.4	-4.5	-1.1	7.4
COc1ccc(OCC(=O)OCC(=O)NC2CCCC2)cc1	.	.	-14.3	-3.5	2.2	3.5	-15.9	.
Cc1ccc2oc(=O)c3cc(C(=O)N4CCN(C)CC4)sc3c2c1	i	-6.0	-5.1	1.5	3.9	6.1	-12.7	11.2
Cc1ccc2cccc(OCCCOc3ccccc3CO)c2n1	i	-8.8	-12.6	11.4	1.0	1.9	11.0	-0.7
O=c1sc(/C=N/Nc2ccccc2)c(Cl)n1Cc1ccccc1	i	3.0	.	-10.6	-4.7	-8.7	8.6	19.7
O=C(Cc1c(F)cccc1Cl)NCc1cccnc1	i	6.8	4.2	6.3	0.1	0.0	-13.7	2.2
COc1cc(C(=O)Nc2ccc(S(=O)(=O)N(C)c3ccccc3)cc2)cc(OC)c1OC	i	-6.5	.	2.5	3.7	-2.4	13.5	-4.1
O=[N+]([O-])c1ccc(OCC(O)CN(CCO)CCO)cc1 (centres undefined)	i	1.0	-18.8	0.1	-1.8	0.0	6.1	0.3
COCCN(C(=O)C1CCC1)c1nnc(-c2cccnc2)s1	.	2.2	-19.4	-5.3	4.7	1.2	.	-5.8
Cn1c(=O)c2c(ncn2CCC(=O)N/N=C/c2ccncc2)n(C)c1=O	i	-9.0	.	-4.5	-2.8	-0.8	-18.2	1.1
COc1ccc(OC)c(Nc2nc3nonc3nc2N2CCCCC2)c1	i	23.0	-27.8	.	-27.0	0.5	0.7	-12.2
N#C/C(=C\c1ccc([N+](=O)[O-])cc1)C(=O)NCCCn1ccnc1	i	2.0	1.8	-11.5	-2.0	-0.3	2.7	0.5

Next part.
SMILES	Rce1 inh	eIF4H inh	Yeast UUG start	Env fusion inh	MT1-MMP act inh	MT1-MMP act inh RFP	CSC inhib	PABP polyA inh	others
COc1cc(OC)c(C(=O)OCC(=O)Nc2ccc(N3CCOCC3)cc2)cc1OC	.	.	-7.2	-4.9	-0.5	0.4	.	.
Cc1cc(C)n(C(=O)/C(C#N)=C/N(C)C)n1	i	11.9	-1.2	-10.3	2.2	4.4	21.1	-6.3
CCOC(=O)c1cnc(-c2ccccc2)nc1C(F)(F)F	i	13.1	-7.5	4.0	-3.3	0.9	-8.7	3.7
COc1ccc(C(C)(C)C)cc1NC(=O)c1ccoc1C	i	4.0	31.1	-4.7	-1.3	-3.6	-3.3	3.5
COC(=O)Cc1nc(Nc2ccccc2)sc1C	i	1.0	-14.3	5.5	6.2	0.0	8.3	-10.9
Cc1ccc(-n2ncc3c2ncn2nc(-c4ccco4)nc32)c(C)c1	i	-13.7	-8.2	.	-1.3	0.4	-0.3	8.6
CCN(C(=O)Cn1nc(C(=O)O)c2ccccc2c1=O)C1CCCCC1	i	-17.8	.	-0.3	-0.9	3.3	4.8	-16.3
CCOc1ccc(OCCCC(=O)N2CCN(S(=O)(=O)c3ccc(Cl)cc3)CC2)cc1	i	.	.	0.3	-4.9	-4.8	-7.9	.
O=c1oc(-c2ccccc2[N+](=O)[O-])nc2ccccc12	i	-7.7	.	.	-0.1	4.3	-0.1	7.0
Cc1nonc1C(=O)N/N=C/c1ccncc1	i	1.0	-7.0	-7.2	0.3	4.1	9.7	0.4
O=C(NCc1cccs1)c1ccc(CS(=O)Cc2cccc(Cl)c2)o1 (centres undefined)	i	-7.3	-4.5	13.7	0.3	4.4	-9.8	-3.0
O=C(NCC1CCCO1)C(c1ccncc1)N(Cc1ccc(F)cc1)C(=O)CN1C(=O)c2ccccc2S1(=O)=O (centres undefined)	i	-6.5	.	.	3.5	5.4	4.6	-4.4
Cc1ccc(/C=C/C(=O)N2CC(C)CC(C)C2)o1 (centres undefined)	i	3.8	-4.6	.	-2.3	5.5	?	5.5
Cc1cc(C)c(NC(=O)c2cc(S(=O)(=O)N3CCOCC3)ccc2F)c(C)c1	i	.	-7.3	1.0	-0.5	-1.9	-9.1	.

6 records drawn at random from those above:
SMILES	Rce1 inh	eIF4H inh	Yeast UUG start	Env fusion inh	MT1-MMP act inh	MT1-MMP act inh RFP	CSC inhib	PABP polyA inh	others
Cc1cc(C(=O)Nc2ccc3c(c2)OCCO3)c2ccccc2n1	i	2.4	.	14.1	-1.2	-0.6	-3.7	-4.7
Cc1ccc2cccc(OCCCOc3ccccc3CO)c2n1	i	-8.8	-12.6	11.4	1.0	1.9	11.0	-0.7
Cn1c(=O)c2c(ncn2CCC(=O)N/N=C/c2ccncc2)n(C)c1=O	i	-9.0	.	-4.5	-2.8	-0.8	-18.2	1.1
O=C(Cc1c(F)cccc1Cl)NCc1cccnc1	i	6.8	4.2	6.3	0.1	0.0	-13.7	2.2
COc1cc(OC)c(C(=O)OCC(=O)Nc2ccc(N3CCOCC3)cc2)cc1OC	.	.	-7.2	-4.9	-0.5	0.4	.	.
COc1cc(C(=O)Nc2ccc(S(=O)(=O)N(C)c3ccccc3)cc2)cc(OC)c1OC	i	-6.5	.	2.5	3.7	-2.4	13.5	-4.1

Bioassay records: PubChem, several laboratories
